N370S GC mod: qHTS Assay for Inhibitors and Activators of N370S glucocerebrosidase as a Potential Chaperone Treatment of Gaucher Disease; AID 2101, 2009; hit rate 0.092% among 330,000; Potency, µM (top dose mostly 59.4 µM), without a hit: at the top dose activity change, negative = inhibition, actives largely listed as inhibitors; N370S GC spleen homogenate, 4MU-glucoside fluorescence;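 also: 0% = full enzyme activity and -100% = no enzyme basal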
FEN1 inhibitor: qHTS Assay for the Inhibitors of Human Flap endonuclease 1 (FEN1); AID 588795, 2011; Potency, µM (top dose mostly 114 µM), inactives show top-dose activity change, negative = inhibition, usual class: inhibitors; Recombinant FEN1 flap cleavage, fluorescence, 15 min; hit rate 0.35% among 390,000; also: nearly all actives have a fitted effect of over 65% in size
Target sequence (P39748 whole entry, looked up): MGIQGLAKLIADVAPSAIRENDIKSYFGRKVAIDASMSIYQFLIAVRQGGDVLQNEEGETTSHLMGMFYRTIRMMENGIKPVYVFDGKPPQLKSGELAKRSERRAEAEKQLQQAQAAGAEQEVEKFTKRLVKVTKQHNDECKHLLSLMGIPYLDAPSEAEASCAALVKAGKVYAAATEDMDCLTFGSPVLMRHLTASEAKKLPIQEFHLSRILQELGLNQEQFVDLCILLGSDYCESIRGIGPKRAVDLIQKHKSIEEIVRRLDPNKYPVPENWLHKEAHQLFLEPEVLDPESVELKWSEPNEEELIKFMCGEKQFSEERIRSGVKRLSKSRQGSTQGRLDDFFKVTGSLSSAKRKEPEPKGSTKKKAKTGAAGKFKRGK
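FEN1 at 10 nM preincubated with compounds 15 min at room temperature, then flap DNA substrate added at 50 nM final. Signal read at 0 and 15 min; concentration-response fitted with four-parameter Hill equation.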
* hit, by the source's call; u = inconclusive; x = not tested or not shown; & = joins results of further samples; [ ] = dose if it differs, or a comment. Calls follow the shape of the dose curve; as a rule, active = well fitted curve in the direction sought with a large enough effect; inconclusive = small, poorly fitted or top-dose-only effect, or another doubt; inactive = no such curve, though single readings can be large; an effect the other way counts as inactive or inconclusive. Unless noted, % is scaled to controls: 0 for no effect and ±100 for the full control effect; potency is read from the fitted curve at half-maximal effect. Only part of the results is shown, and most or all hits are left out here.

N370S GC mod | FEN1 inhibitor | Compound
1% | -3% | O=C(NCCN1CCN(Cc2ccc([N+](=O)[O-])cc2)CC1)C(=O)Nc1ccccc1
11% | -8% | N=C1C(c2nc3ccccc3s2)=C(O)CN1NC(=O)c1ccco1
-4% | -11% | CCN(CC)CCNC(=O)C1CCC(=O)N1CCc1ccccc1 (stereo not given)
16% | -13% | CCc1cccc(NC(=O)c2ccc(Cn3c(=O)[nH]c4ccsc4c3=O)cc2)c1
14% | 5% | CC(C)CCn1c(Cl)nc2c1c(=O)n(C)c(=O)n2C
-14% | -1% | O=C(Nc1ccc(OC(F)(F)F)cc1)c1ccc2nc[nH]c2c1
0% | 10% | Cc1cc(-c2ccc(S(=O)(=O)N3CCN(c4cccc(C)c4C)CC3)s2)on1
-3% | 5% | COc1ccc(Cl)cc1C(=O)NCCCN1CCOCC1
6% | -6% | CCN(CC)S(=O)(=O)c1ccc(N2CCOCC2)c(NC(=O)c2c3c(nc4ccccc24)CCC3)c1
x | 6% | COc1ccc(C(=O)NCC(c2ccc(N(C)C)cc2)N2CCCC2)cc1 (stereo not given)
-6% | 17% | CCc1ccc(C(=O)NC(C(=O)NCC2CCCO2)C(C)C)cc1 (stereo not given)
4% | -7% | CCOC(=O)C1CCCN(C(=O)c2cc3c(-c4cccc(OC)c4)nn(C)c3s2)C1 (stereo not given)
22% | 3% | COC(=O)CC(NC(=O)c1ccc(C)cc1)c1ccc2c(c1)OCO2 (stereo not given)
-9% | 6% | Cc1cccc(NC(=O)c2cnccn2)c1
-9% | -11% | Cc1ccccc1NC(=O)c1nnn(-c2ccc3c(c2)OCCO3)c1N
-9% | -1% | COCCN(C(=O)c1csnn1)C(C(=O)NC1CCCCC1)c1ccc(Cl)cc1 (stereo not given)
-12% | -6% | COc1ccc(NC(=O)CSc2nnc3ccc(-c4cccnc4)nn23)cc1
0% | 1% | CC(C)CC(=O)Nc1ccc(OCC(=O)O)cc1
x | 17% | COc1ccc(CNC(=O)CCC(=O)c2ccccc2)cc1
6% | 5% | CC(=O)c1cccc(NC(=S)NC(=O)c2ccc(Cl)cc2)c1
-22% | u | NC(N)=Nc1nc(-c2ccccc2)c2cc(Cl)ccc2n1
-5% | -5% | Cc1ccc(N=C2NC(=O)/C(=C\c3ccco3)S2)cc1
-2% | 14% | Cc1cc(C)n(CCNS(=O)(=O)c2ccc(C)c(C)c2)n1
-1% | -6% | COc1ccc(-n2c(SCC#N)nc3ccccc3c2=O)cc1
1% | -2% | O=C1COc2ccc(S(=O)(=O)N3CCc4ccccc43)cc2N1
x | -15% | CCCCNC(=O)CN1C(=O)CSc2ccc(S(=O)(=O)N3CCC(C)CC3)cc21
8% | 1% | CC(=O)c1cccc(NC(=O)CSC(=O)c2ccccc2)c1
-4% | 7% | CC1=CC(C)(C)N2C(=O)C3(N=C(N)NC(Nc4ccccc4)=N3)c3cc(C)cc1c32 (stereo not given)
4% | -9% | CC(=O)OCc1c(C(F)(F)F)nn(C)c1Oc1cccc(C(F)(F)F)c1
14% | -2% | Cc1ccc(N=C(NOCc2ccc(Cl)cc2Cl)c2nonc2N)c(C)c1
-14% | -3% | O=C(Nc1ccccc1)c1cc(-n2cnnc2)ccc1Cl
-10% | u | COc1cc(NC(=O)Nc2cccc3cccnc23)cc(OC)c1OC
x | 0% | O=C(COC(=O)/C=C/c1ccc(Cl)cc1)NC(=O)NCc1ccccc1
5% | 0% | Cc1cnn(C(=S)NCCc2ccccc2)c1
-21% | 0% | CC1(C)CC(=O)C2=C(C1)N(c1ccccc1)C(=O)CC2c1ccc(O)cc1 (stereo not given)
-17% | -16% | COc1ccc(C(c2nnnn2Cc2ccccc2)N2CCN(c3ccccc3)CC2)cc1 (stereo not given)
u | 1%&-10% | FC(F)(F)c1cccc(-c2nc3nc(Cl)c(Cl)nc3[nH]2)c1
7% | 7% | COc1ccc(C(=O)CSc2nnc(CNC(=O)c3ccco3)n2C)cc1
7% | 12% | COCCCC1CCN(Cc2nc(Cc3ccccc3Cl)no2)CC1
-1% | 10% | COc1ccc(-c2cc(-c3ccc(C)cc3)n[nH]2)c(O)c1

Fetched one by one from the entries so far, four records:
N370S GC mod | FEN1 inhibitor | Compound
7% | 12% | COCCCC1CCN(Cc2nc(Cc3ccccc3Cl)no2)CC1
7% | 7% | COc1ccc(C(=O)CSc2nnc(CNC(=O)c3ccco3)n2C)cc1
-21% | 0% | CC1(C)CC(=O)C2=C(C1)N(c1ccccc1)C(=O)CC2c1ccc(O)cc1 (stereo not given)
x | 0% | O=C(COC(=O)/C=C/c1ccc(Cl)cc1)NC(=O)NCc1ccccc1

Next part:
N370S GC mod | FEN1 inhibitor | Compound
-4% | x | Cc1cccc(-c2cc(C(=O)NCCCn3ccnc3)c3ccccc3n2)c1
4% | -20%&-10% | COc1ccccc1-c1cc(C(=O)NCCc2ccccc2)no1
-10% | 8% | Cc1ccc(OCC(=O)Nc2ccc3c(c2)C(=O)NC3=O)cc1
-5% | 0% | Cc1ccc(CNC(=O)C2CCN(S(=O)(=O)c3cccs3)CC2)o1
-2% | -2% | Nc1cc(Cl)ccc1N1CCCCCC1
-6% | -2% | O=C(COc1cc2oc(=O)c3c(c2cc1Cl)CCC3)NCCCN1CCCC1=O
21% | -6% | COc1ccc(-c2cc(CCCC(=O)NCc3ccccn3)no2)cc1
0% | 0% | Cc1ccccc1Nc1ncnc(N)n1
5% | -4% | Cc1ccccc1C(=O)N1CCN(CCNC(=O)C(=O)Nc2ccc(Br)cc2)CC1
-1% | -3% | CC(=O)N1CCCc2cc(S(=O)(=O)CCC(=O)Nc3cccc(C)c3C)ccc21
-3% | 3% | O=C(CNC(=O)c1ccccc1)NCC(=O)OCc1ccc(Cl)cc1
0% | -1% | Cc1cc(S(=O)(=O)N2CCOCC2)ccc1OCC(=O)Nc1cccc(C(F)(F)F)c1
8% | -15% | COc1ccc(C(=O)Nc2ccccc2C(=O)Nc2cccnc2)cc1
11% | 3% | CC1CN(C(=O)c2ccn(C)n2)CC(C)O1 (stereo not given)
x | 5% | COC(=O)CCN(c1ccccc1)C(CNS(=O)(=O)c1ccccc1)c1ccccc1 (stereo not given)
27% | 1% | Cc1ccc(CNC(=O)COC(=O)c2ccc(Cl)c(N)c2)cc1
-19% | -5% | NC(=O)c1ccc[n+](CC(=O)c2ccc(Br)cc2)c1
-16% | -1% | Cc1nnc(N2CCN(Cc3ccccc3)CC2)[nH]c1=O
0% | -3% | Cc1ccc(N2C(=O)NC(NC(=O)C3CC3)(C(F)(F)F)C2=O)cc1 (stereo not given)
6% | 2% | COc1cc(CC(=O)OCC(=O)c2ccc3c(c2)OCCO3)cc(OC)c1OC
9% | -3% | CS(=O)(=O)N1CCCC(C(=O)Nc2ccc(Br)cc2F)C1 (stereo not given)
x | 15% | Cc1ccc(C(=O)OCc2cc(=O)n3c(C)csc3n2)s1
-15% | -5% | CN(Cc1cccc(F)c1)C(=O)c1cccc(S(=O)(=O)N2CCN(Cc3ccccc3)CC2)c1
1% | 4% | Cc1cccc(CCN(CC(=O)NC(C)(C)C)C(=O)c2csnn2)c1
-5% | -16% | O=C(N/N=C/c1ccc2c(c1)OCO2)c1cc(-c2ccncc2)nc2ccccc12
2% | -7% | NC(=O)c1cc(-c2ccccc2)sc1NC(=O)Cc1ccc(S(=O)(=O)N2CCOCC2)s1
-8% | 16% | CN(C)c1ccc(CNC(=O)C2CCN(S(=O)(=O)c3ccc4c(c3)CCC(=O)N4)CC2)cc1
-1% | 10% | COc1ccc(/C=C2\N=C3CCCCCN3C2=O)cc1OC
9% | -3% | COc1ccccc1NC(=O)CSc1nnc(CC(=O)Nc2ccccc2)n1C
1% | -15% | CC(C)C(=O)Nc1ccc2c(c1)nc(CCN1CCN(c3ccccn3)CC1)n2C
10% | -22% | Cc1ccc(OCCC(=O)Nc2ccc(F)c(Cl)c2)cc1
-7% | 3% | COC1CCN(Cc2c(C(=O)N3CCN(C4CCCCC4)CC3)nc3ccccn23)CC1

Whole records as entered above. Screens in order: N370S GC mod	FEN1 inhibitor
O=C(N/N=C/c1ccc2c(c1)OCO2)c1cc(-c2ccncc2)nc2ccccc12 as listed: -5%	-16%
COc1ccccc1NC(=O)CSc1nnc(CC(=O)Nc2ccccc2)n1C as listed: 9%	-3%
NC(=O)c1cc(-c2ccccc2)sc1NC(=O)Cc1ccc(S(=O)(=O)N2CCOCC2)s1 as listed: 2%	-7%
CN(C)c1ccc(CNC(=O)C2CCN(S(=O)(=O)c3ccc4c(c3)CCC(=O)N4)CC2)cc1 as listed: -8%	16%
Cc1ccc(OCCC(=O)Nc2ccc(F)c(Cl)c2)cc1 as listed: 10%	-22%

Continuation.
N370S GC mod | FEN1 inhibitor | Compound
0% | -6% | Cc1ccccc1N1CCN(C2CCCN(C(=O)c3snnc3C)C2)CC1 (stereo not given)
4% | -21% | COc1ccccc1CN(Cc1cc2cc(C)ccc2[nH]c1=O)Cc1nnnn1CC1CCCO1 (stereo not given)
x | 20% | CC(C)(O)c1cc2ccccc2c(=O)o1
7% | 12% | Cc1cccc(C(=O)NC(NCc2ccco2)C(Cl)(Cl)Cl)c1 (stereo not given)
1% | 9% | CC/C(=N/Nc1ccc(Cl)cc1)c1cnnc(SC)n1
10% | 16% | O=C(CNC(=O)N1CC(=O)Nc2ccccc21)Nc1cccc(F)c1
-1% | -10% | COc1ccc(OC)c(NC(=O)C(CC(=O)O)Cc2ccc(Cl)cc2)c1 (stereo not given)
-6% | 1% | O=C(CN1CCCCCC1)Nc1ccccc1OC(F)F
-2% | -11% | O=C(c1ccc(Br)cc1)c1cn[nH]c1-c1ccccc1O
0% | 19% | COc1cccc(/C(C)=N/NC(=O)c2cc(-c3cccnc3)nc3ccccc23)c1
12% | -3% | S=C(NCCOCCOCCNC(=S)Nc1ccccc1)Nc1ccccc1
-2% | -1% | COCCN(Cc1cccs1)S(=O)(=O)c1csc(C(N)=O)c1
-5% | 1% | COc1ccc(C(C)=O)cc1CSc1nnc(SCc2cc(C(C)=O)ccc2OC)s1
5% | -13% | CCc1cc(=O)oc2cc(OC(C)C(=O)NCC(O)c3ccccc3)c(Cl)cc12 (stereo not given)
6% | 15% | CCCNS(=O)(=O)c1ccc(CCC(=O)NCc2ccc3c(c2)OCO3)cc1
-12% | -3% | CC(NC(=O)c1ccc2c(c1)S(=O)(=O)N=C1CCCCCN12)c1ccc(S(N)(=O)=O)cc1 (stereo not given)
x | -12% | COc1ccc(CCNS(=O)(=O)c2ccc3c(c2)CC(C)N3C(=O)C2CCC2)cc1OC (stereo not given)
-7% | 13% | C=CCCC(=O)Nc1nc(C)c(-c2csc(Nc3cccc(OC)c3)n2)s1
-14% | 1% | COc1cccc(NC(=O)CSc2ccc3nnc(-c4cccnc4)n3n2)c1
11% | 2% | CCOc1ccc(C2NC(=O)c3sc(=S)n(-c4ccccc4)c3N2)cc1 (stereo not given)
-3% | 0% | COc1ccc(Cc2nnc(SCC(=O)N(C)CC(=O)Nc3ccc(C)cc3)o2)cc1
x | 21% | O=C(c1cnn(C(=O)c2ccco2)c1)c1cc(Cl)cc(Cl)c1O
3% | 7% | CNC(=O)CN(C1CCCCC1)S(=O)(=O)c1ccc(F)cc1
u | 10% | NS(=O)(=O)c1ccc(Nc2ccc3cc(S(=O)(=O)N4CCCCC4)ccc3n2)cc1
x | -2% | CC(=O)O[C@H]1C[C@@H]2CC[C@@H]3[C@H](CC[C@@]4(C)[C@H]3C[C@H]([N+]3(C)CCCCC3)[C@@H]4OC(C)=O)[C@@]2(C)C[C@@H]1[N+]1(C)CCCCC1
x | -8% | O=C(COc1ccccc1)N1CCN(C(=O)c2ccco2)CC1
x | -9% | Cc1ccccc1-c1nc(CS(=O)(=O)CC(=O)NCCCc2ccccc2)c(C)o1
-2% | 7% | Cc1ccc(NC(=O)CCC(=O)N/N=C/c2cccnc2)cc1
4% | 3% | CCC(C)(C)n1nnnc1C(c1ccccn1)N1CCCCC1 (stereo not given)
21% | 9% | O=C(COc1cc(Cl)c(Cl)cc1Cl)NCCN1CCOCC1
-2% | -4% | CCOC(=O)C1(CCOc2ccccc2)CCN(Cc2cccn2-c2cccnc2)CC1
-18% | -14% | COC(=O)COc1cccc(NC(=O)c2ccc(C)cc2)c1
x | -2% | CN(C)C(=O)CSc1ccc(S(=O)(=O)N2CCOCC2)cn1
8% | -5% | COC(=O)c1[nH]c2ccccc2c1NC(=O)CN1CC(C)OC(C)C1 (stereo not given)
-4% | 7% | CN1C(N)=NC(=O)/C1=C/c1ccccc1F
-15% | -12% | Nc1nc(NCCCN2CCOCC2)nc(Nc2cccc(F)c2)c1[N+](=O)[O-]
-5% | 1% | Cc1cc(C)cc(NC(=O)C(OC(=O)c2ccc(NC(=O)CC#N)cc2)c2ccccc2)c1 (stereo not given)
-9% | -4% | CCC(C)[C@H](NC(=O)C1CC(=O)N(c2ccc3c(c2)OCO3)C1)C(=O)NC1CCCCC1 (stereo not given in full)
6%[2.35 µM] | -18% | Clc1ccc(OCc2nnc(-c3ccccc3Br)o2)cc1
0%&2%&0% | -7%&-2% | Nc1ccn([C@H]2C[C@H](O)[C@@H](CO)O2)c(=O)n1

From PubChem
